Assay outcomes deposited in PubChem BioAssay by National Center for Advancing Translational Sciences (NCATS).
D2 PAM: Beta-Arrestin HTS for Positive Allosteric Modulators of the Human D2 Dopamine Receptor: Potentiators. D(2) dopamine receptor (Homo sapiens), P14416. DiscoveRx D2 beta-arrestin cells, luminescence, 90 min; 100% = 57 uM dopamine signal. potentiation, % (test concentration not listed). hit rate 0.23% among 360,000; active = potentiation of 50% or more; inconclusive = 30% to 50%; inactive = 30% or less;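 further: compound concentration not given in the record; tested on top of an EC20 dose of dopamine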
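PathHunter D2 cells, attached overnight at 37 deg C, received compound in DMSO plus dopamine at EC20 (50 nM final) for 90 min at 37 deg C. Beta-arrestin recruitment was read as luminescence after 1 h with detection reagent at ambient temperature.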
gsp ag: qHTS for Agonist of gsp, the Etiologic Mutation Responsible for Fibrous Dysplasia/McCune-Albright Syndrome: qHTS; gsp mutant cells, cAMP HTRF, 30 min; control for the full effect not named in the record; Potency, µM (doses to about 76.9 µM), for the others: at the top dose activation (cAMP increase), usual class: activators; hit rate 0.13% among 340,000; AID 624287, 2012; active = well fitted activation curve with a large enough effect; inconclusive = small, poorly fitted or top-dose-only effect, or another doubt; inactive = no such curve, though single readings can be large or run the other way; cell line not stated here;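 further: phosphodiesterase inhibitor Ro 20-1724 added with compounds to block cAMP breakdown; potency means the concentration at half of the fitted maximal effect; nearly all actives have a fitted effect of over 60% in size; about a fifth of the inactives were tested at one dose only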
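Cells stably selected in G418 were plated at 2000/well, grown 16-24 hr, then given compounds in DMSO with the PDE inhibitor […] (300 uM solution added) for 30 min at 37C; cAMP was read by HTRF.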
D2 ag: Beta-Arrestin HTS for Positive Allosteric Modulators of the Human D2 Dopamine Receptor: Agonists | D(2) dopamine receptor (Homo sapiens), P14416 | DiscoveRx PathHunter D2 beta-arrestin, luminescence, 90 min; 100% = 57 uM dopamine signal | activation, % (concentration not given with the values) | hit rate 0.084% among 360,000; in the data active = activation above about 40%; inconclusive = about 15% to 40%; inactive = below about 15%; further: compound concentration not given in the record; the text of the record calls up to 30% inactive
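Agonist mode: compounds alone added to overnight-plated D2 PathHunter cells for 90 min at 37 C, with 57 uM final dopamine (EC100) defining full response. Beta-arrestin recruitment detected by chemiluminescent reagent, read after 1 h at ambient temperature.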
CtBP-E1A blk: qHTS Assay for Inhibitors of the CtBP/E1A Interaction; AlphaScreen GST-E1A/His-CtBP binding, 1536-well; stronger effect = lower value; control for the full effect not named in the record; activity change, % (no concentration beside the values); CtBP / adenovirus E1A interaction (AlphaScreen); hit rate 0.49% among 340,000; in the data active means activity change below about -65%; inconclusive means about -30% to -65%; inactive means above about -30%; further: on the % scale 0 is the no-effect control and ±100 the full control effect; compound concentration not given in the record
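In 5 uL wells, 23 nL compound meets equimolar GST-E1A and His-CtBP (5X stock 125 nM each) for 2 h, 37 °C. Beads (5X, 50 ug/mL) then 1 h, 37 °C, dark.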
gsp antagonist: qHTS for Antagonists of gsp, the Etiologic Mutation Responsible for Fibrous Dysplasia/McCune-Albright Syndrome: qHTS; hit rate 0.4% among 340,000; Potency, µM (series often up to 76.9 µM), without a hit: at the highest dose activity change, negative = inhibition, usual class: inhibitors; gsp-mutant cells, cAMP HTRF, 30 min; control for the full effect not named in the record; active = falling curve of any shape with a large fitted effect; inconclusive = falling curve, mostly with a smaller effect; inactive = flat or rising curve; cell line not stated here;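 further: intracellular cAMP measured with PDE inhibitor Ro 20-1724 present during compound exposure; potency means the concentration at half of the fitted maximal effect; on the % scale 0 is the no-effect control and ±100 the full control effect; nearly all actives have a fitted effect of over 65% in size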
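HTRF cAMP measurement after 30 min RT detection following 30 min, 37C compound treatment alongside […] (added as 300 uM solution) in G418-selected cells seeded at 2000/well and grown 16–24 h.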
Six1-Eya2 blk: qHTS Assay for Inhibitors of the Six1/Eya2 Interaction; Homeobox protein SIX1 (Homo sapiens) + Protein phosphatase EYA2 (Homo sapiens), …; activity change, % (test concentration not listed); AlphaScreen GST-Six1/His-Eya2 binding, biochemical; stronger effect = lower value; control for the full effect not named in the record; hit rate 0.56% among 360,000; in the data active = activity change below about -65%; inconclusive = about -30% to -65%; inactive = above about -30%; further: on the % scale 0 is the no-effect control and ±100 the full control effect; compound concentration not given in the record
Target sequence (O00167 whole entry, looked up): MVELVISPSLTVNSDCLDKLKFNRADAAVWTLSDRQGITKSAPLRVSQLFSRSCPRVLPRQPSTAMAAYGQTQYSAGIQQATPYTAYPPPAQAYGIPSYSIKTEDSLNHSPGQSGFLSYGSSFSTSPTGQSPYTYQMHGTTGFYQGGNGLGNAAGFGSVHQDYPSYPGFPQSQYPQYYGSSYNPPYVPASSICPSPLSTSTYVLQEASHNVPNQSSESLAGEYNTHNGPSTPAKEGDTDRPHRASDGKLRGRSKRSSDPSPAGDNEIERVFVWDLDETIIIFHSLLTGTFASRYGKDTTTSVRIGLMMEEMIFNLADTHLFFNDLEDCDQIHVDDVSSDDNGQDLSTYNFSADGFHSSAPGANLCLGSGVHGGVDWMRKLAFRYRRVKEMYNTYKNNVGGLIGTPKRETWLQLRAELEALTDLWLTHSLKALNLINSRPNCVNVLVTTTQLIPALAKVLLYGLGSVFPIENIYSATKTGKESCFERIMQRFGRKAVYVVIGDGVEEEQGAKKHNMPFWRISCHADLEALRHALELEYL
Target sequence (Q15475 whole entry, looked up): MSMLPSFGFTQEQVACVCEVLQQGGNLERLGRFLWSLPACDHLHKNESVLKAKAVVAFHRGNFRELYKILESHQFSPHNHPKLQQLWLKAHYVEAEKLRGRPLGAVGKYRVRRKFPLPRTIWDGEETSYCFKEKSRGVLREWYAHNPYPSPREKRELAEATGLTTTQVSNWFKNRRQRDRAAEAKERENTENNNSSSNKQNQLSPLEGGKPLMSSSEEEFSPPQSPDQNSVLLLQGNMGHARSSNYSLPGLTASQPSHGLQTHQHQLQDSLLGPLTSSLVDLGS
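Six1/Eya2 binding was read as AlphaScreen signal after compounds were pinned into GST-Six1 plus His-tagged Eya2 (5X stock 250/500 nM) in pH 8.0 Tris/NaCl/TCEP buffer, beads added, then incubated 1 h, 37 C, dark.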
Active calls of the source: *; u = inconclusive; x = not tested or not shown; [ ] = remark or other dose.

compound	D2 PAM	gsp ag	D2 ag	CtBP-E1A blk	gsp antagonist	Six1-Eya2 blk
O=C1NC(=S)N/C1=C/c1cc([N+](=O)[O-])ccc1N1CCOCC1	-9.0	4.9%[15.4 µM]	-1.6	u	-8.3%	u
O=C(COC(=O)/C=C/c1ccc(F)cc1)Nc1ccc(S(=O)(=O)N2CCOCC2)cc1	-0.4	3.7%	1.4	14.8	-2.8%	-0.8
COC1=C(C)C(=O)C2=C(C1=O)C1C3CC4=C(C(=O)C(OC)=C(C)C4=O)C(CNC(=O)C(C)=O)N3C(C#N)C(C2)N1C (stereo not given)	14.3	9.2%	11.8	1.1	7.8%	-3.9
O=C(N/C(=C/c1ccc(F)cc1)C(=O)N1CCCC1)c1ccccc1	-2.8	4.5%	-2.5	-3.8	-1.3%	-5.3
COc1cccc(NC(=O)CN2C(=O)NC3(CCCC3)C2=O)c1	-3.1	13.6%	0.2	7.0	3.8%	-0.4
CC(=O)Nc1ccc(-c2ccnc3c2CC(C)(C(=O)Nc2cccc(C(F)(F)F)c2)O3)cc1 (stereo not given)	2.0	x	10.8	-11.9	x	-13.3
CC(C)(C)C(=O)NNC(=O)CCCOc1ccc(Cl)cc1Cl	-7.0	-52.5%[inhibitor]	-0.9	8.4	0.3%	0.7
CC(=O)N1CCC(C(=O)Nc2cc(S(=O)(=O)N3CCCCC3)ccc2C)CC1	-19.3	-96.3%[inhibitor]	-0.3	-22.5	x	18.4
Cc1cc(C)nc(NS(=O)(=O)c2ccc(NC(=O)CN3C(=O)C4CC=CCC4C3=O)cc2)n1 (stereo not given)	-3.6	7.5%[15.4 µM]	-2.0	5.5	2.3%	-2.4
COc1cc(NC(=O)c2cccs2)c(C(=O)OCC(=O)c2cc(C)n(-c3ccccc3)c2C)cc1OC	-17.0	3.0%	-2.3	-8.6	-2.1%	-6.8
Cc1cc(OCCCCNC(C)C)cc(C(C)C)c1	-30.3	-9.6%	-2.6	-12.9	6.9%	9.6
Nc1nnnn1/N=C/c1ccccc1OCc1ccc(Cl)cc1Cl	4.1	u	6.0	1.3	1.0%	-1.4
CCc1c(C)sc(NC(=O)Cn2nc(C(F)(F)F)c3c2CCCC3)c1C#N	0.5	-53.5%[inhibitor]	1.1	2.2	0.0%	1.3
O=C(NCCc1ccccc1)C1CCN(S(=O)(=O)c2ccc(-c3nn[nH]n3)cc2)CC1	11.5	-26.7%	-2.8	-3.5	-4.4%	-1.1
CCOC(=O)C1CCCN(C(=O)C2CCN(C(=O)Nc3ccccc3)CC2)C1 (stereo not given)	-2.9	-2.8%[15.4 µM]	0.4	7.3	8.1%	-0.8
CCOC(=O)N1CCC(NC(=O)CS(=O)(=O)Cc2nc(-c3cccc(OC)c3)oc2C)CC1	-6.4	-1.3%	-0.2	0.9	-9.7%	0.5
Cc1cc(C(=O)NNCc2ccccc2)no1	-5.4	x	-5.2	3.7	1.9%	-0.2
CC(=O)NCCn1c(SCC(=O)NCc2ccco2)nc2ccccc2c1=O	-3.4	-14.2%	-1.6	-5.4	0.4%	0.9
O=C(NC1CCSC1=O)C1CCCCC1 (stereo not given)	-5.5	u	-3.0	11.4	2.0%	4.1
O=S(=O)(c1ccc(Cl)c(NC(=S)Nc2ccccc2N2CCOCC2)c1)N1CCOCC1	-7.4	7.4%[15.4 µM]	-4.3	-3.6	-0.8%	6.3
COc1cccc(NC(=O)C2CCN(S(=O)(=O)c3ccc4c(c3)CC(C)N4C(C)=O)CC2)c1 (stereo not given)	-26.4	u	-1.1	-12.7	u	-13.9
CCOc1cccc2cc(C(=O)N3CCN(C/C=C/c4ccccc4)CC3)c(=O)oc12	-12.4	22.9%	-1.0	-10.9	-10.1%	-10.1
COc1ccc(NC(=O)c2ccc(COc3ccccc3Br)o2)c(OC)c1	-7.0	-6.5%	-1.6	-13.3	u	-8.7
Nc1ccc(-c2n[nH]c(=O)c3ccccc23)cc1N	-1.2	-1.8%	1.7	-15.5	2.3%	-12.0
COc1cccc(OCc2nc3c4cnn(-c5ccccc5)c4ncn3n2)c1	-4.1	-7.4%	-1.9	4.6	1.1%	-0.3

Overlap with the part before: 3 entries, followed by the next part.
compound	D2 PAM	gsp ag	D2 ag	CtBP-E1A blk	gsp antagonist	Six1-Eya2 blk
COc1ccc(NC(=O)c2ccc(COc3ccccc3Br)o2)c(OC)c1	-7.0	-6.5%	-1.6	-13.3	u	-8.7
Nc1ccc(-c2n[nH]c(=O)c3ccccc23)cc1N	-1.2	-1.8%	1.7	-15.5	2.3%	-12.0
COc1cccc(OCc2nc3c4cnn(-c5ccccc5)c4ncn3n2)c1	-4.1	-7.4%	-1.9	4.6	1.1%	-0.3
CCCCOc1ccc(N2C(=O)CC(NCc3ccncc3)C2=O)cc1 (stereo not given)	1.8	-11.6%	-2.4	1.8	6.6%	3.1
O=C1CCCCN1CCCC(=O)N1CCCC(Nc2ccccc2)C1 (stereo not given)	-13.2	-31.8%[inhibitor]	-4.0	-3.0	4.8%	2.3
CC1(C)OC(=O)C(=NNc2ccc(C(=O)O)cc2)C(=O)O1	-7.4	27.3%[15.4 µM]	-0.5	5.7	-1.0%	2.2
COc1ccc(N2CC(O)=C(c3nc(-c4ccc(F)cc4)cs3)C2=N)cc1Cl	-6.8	0.0%[15.4 µM]	-1.8	-21.5	-51.3%	-10.6
O=C1C2(c3ccccc3)CN(CCCO)CC1(c1ccccc1)CN(CCCO)C2	-1.2	1.2%	-2.0	5.8	5.2%	2.6
O=C(CSc1ncnc2sccc12)Nc1ccc(S(=O)(=O)N2CCOCC2)cc1	2.6	12.3%[15.4 µM]	2.1	-22.2	5.9%	-9.5
O=C(NCCNCCO)c1c(O)c2cccc3c2n(c1=O)CCC3	-10.9	22.5%	-2.1	-4.4	8.8%	1.4
COc1ccc(S(=O)(=O)Nc2c(NC3CCCCC3)c3ccccc3oc2=O)cc1OC	-1.1	2.5%	-0.8	x	-21.6%	2.8
Cc1cc(C)c(C#N)c(SCC(=O)c2cccs2)n1	-37.9	-27.5%	-3.3	8.1	0.9%	7.3
COc1ccc(-n2cnnc2SCc2ncc(-c3ccccc3)o2)cc1	-1.4	-49.0%[inhibitor]	-1.0	3.4	10.3%	-3.6
CN(C)CCCN(C(=O)c1ccc(S(=O)(=O)N2CCc3ccccc32)cc1)c1nc2ccc(Cl)cc2s1	-37.0	18.8%	-5.6	-0.9	0.5%	-17.2
Cc1ccc(CNC(=O)C(NS(=O)(=O)c2ccc3nc(C)sc3c2)C(C)C)cc1 (stereo not given)	-5.1	4.7%	-3.0	-14.8	5.5%	-19.9
COc1ccccc1/C=N/OCc1ccc(C#N)cc1	3.1	3.2%	4.8	22.3	8.0%	25.6
CC(C)C1=C2OC(N)=C(C#N)C(C#N)=C2C(C)CC1 (stereo not given)	11.0	22.6%	0.5	-2.8	-6.3%	2.0
NC(=O)c1ccccc1NS(=O)(=O)c1ccc(S(=O)(=O)N2CCCC2)cc1	0.7	-5.7%	-3.6	10.4	-8.8%	7.3
COc1ccc(NC(=S)NC(=O)CC(C)C)c(OC)c1	-5.8	17.1%[15.4 µM]	3.3	18.5	-9.8%	-1.0
COc1ccc(CCNC(=O)CSc2cc(=O)[nH]c(N)n2)cc1OC	-12.5	18.9%	-2.4	0.1	5.9%	-11.6
CCOc1ccc(CCNC(=O)C2CCCN(c3ncnc4c3nc3n4CCCCC3)C2)cc1 (stereo not given)	-2.5	24.8%	3.8	1.7	-21.3%	-6.3
CCNc1ccc(C(=O)OCC(=O)NCCN2C(=O)CSC2=O)cc1[N+](=O)[O-]	-7.7	19.4%	-2.2	-14.9	8.2%	-4.3
COC(=O)N/N=C(\C)c1ccc(C)c([N+](=O)[O-])c1	-8.5	24.3%	-2.1	8.1	0.0%	7.8
O=S1(=O)C=C(SCc2cccc(Cl)c2)Nc2ccccc21	-11.3	7.1%	0.1	6.7	-6.5%	9.0
CCOC(=O)c1cc(C(=O)OCC)cc(-n2c(C)cc(C(=O)CN3CCOCC3)c2C)c1	11.4	-34.7%[inhibitor]	-5.2	1.2	-11.2%	-6.2
O=C(COc1ccc(F)cc1)Nc1nnc(C2CCCCC2)s1	-7.6	-7.0%[15.4 µM]	-4.6	10.4	5.5%	7.3
CC(NC(=O)CCC(=O)NC(C)C1COc2ccccc2O1)C1COc2ccccc2O1 (stereo not given)	-35.3	-28.2%	-1.7	4.4	-2.1%	-14.7
CCN(c1ccccc1)S(=O)(=O)c1ccc(Cl)c(NC(=O)COC(=O)C2CC2C)c1 (stereo not given)	-2.9	3.5%	5.4	5.0	0.9%	2.7

(next part)
compound	D2 PAM	gsp ag	D2 ag	CtBP-E1A blk	gsp antagonist	Six1-Eya2 blk
CC(=O)N1CCOc2cc(S(=O)(=O)N3CCN(c4ccccc4)CC3)c(Cl)cc21	-6.6	28.6%	1.5	3.6	3.3%	-3.1
CCOC(=O)COc1cccc2c(=O)n(CC(=O)NCCc3ccccc3)ccc12	-3.1	u	-4.7	0.2	-2.4%	-2.2
O=C(CN1CCN(c2ncc(C(F)(F)F)cc2Cl)CC1)N1CCN(c2ncc(C(F)(F)F)cc2Cl)CC1	-19.8	22.2%	-0.4	-2.2	-5.0%	2.0
O=C(C1CCCO1)N1N=C(c2ccc(Br)cc2)CC1c1ccco1 (stereo not given)	-9.9	2.8%[15.4 µM]	-0.8	7.7	-2.2%	-9.2
Cc1cc(NC(=O)CCC(=O)NNC(=O)c2ccc(C(C)(C)C)cc2)no1	2.9	-5.4%	-1.9	27.4	11.2%	0.8
